Source: PubChem BioAssay
Menin-MLL FL inh: qHTS Assay for Inhibitors Targeting the Menin-MLL Interaction in MLL Related Leukemias: Competition With Fluorescein Labeled MLL-derived Peptide; Fluorescence polarization, fluorescein-MLL peptide displacement from menin; FP activity change, % at 61.4 µM; 290,000 tested, under 10 active; AID 1766, 2009; inconclusive = falling polarisation curve, or a change in total fluorescence; inactive = total fluorescence flat and polarisation flat or rising; no compound was filed as active; the % refers to the polarisation; negative = inhibition;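 further: % of control where 0% means no effect; inhibitors lower the polarisation; unlabelled MLL peptide was the positive control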
gsp ag: qHTS for Agonist of gsp, the Etiologic Mutation Responsible for Fibrous Dysplasia/McCune-Albright Syndrome: qHTS | gsp mutant cells, cAMP HTRF, 30 min; control for the full effect not named in the record | Potency, µM (titrated, usually from 76.9 µM), inactives show at the top dose activation (cAMP increase), most hits filed as activators | 340,000 tested, 0.13% active | AID 624287, 2012; active = well fitted activation curve with a large enough effect; inconclusive = small, poorly fitted or top-dose-only effect, or another doubt; inactive = no such curve, though single readings can be large or run the other way; cell line not stated here;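 further: phosphodiesterase inhibitor Ro 20-1724 added with compounds to block cAMP breakdown; potency means the concentration at half of the fitted maximal effect; nearly all actives have a fitted effect of over 60% in size; about a fifth of the inactives were tested at one dose only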
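Cells stably selected in G418 were plated at 2000/well, grown 16-24 hr, then given compounds in DMSO with the PDE inhibitor […] (300 uM solution added) for 30 min at 37C; cAMP was read by HTRF.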
TRPML1 blocker: qHTS for Inhibitors of the Human Mucolipin Transient Receptor Potential 1 (TRPML1). TRPML1-inducible cells, Ca2+ dye fluorescence, FDSS; hits give low values; inhibition of EC80 agonist-evoked calcium signal. activity change, negative = inhibition, % (test concentration not listed). 390,000 tested, 0.02% active. AID 624415, 2012; in the data active means activity change below about -50%; inconclusive means about -30% to -50%; inactive means above about -30%;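 further: stimulus is agonist 54-4 at its EC80 concentration; on the % scale 0 is the no-effect control and ±100 the full control effect; compound concentration not given in the record; the text of the record puts the active cut at -80%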
Target sequence (Q9GZU1 whole entry, looked up): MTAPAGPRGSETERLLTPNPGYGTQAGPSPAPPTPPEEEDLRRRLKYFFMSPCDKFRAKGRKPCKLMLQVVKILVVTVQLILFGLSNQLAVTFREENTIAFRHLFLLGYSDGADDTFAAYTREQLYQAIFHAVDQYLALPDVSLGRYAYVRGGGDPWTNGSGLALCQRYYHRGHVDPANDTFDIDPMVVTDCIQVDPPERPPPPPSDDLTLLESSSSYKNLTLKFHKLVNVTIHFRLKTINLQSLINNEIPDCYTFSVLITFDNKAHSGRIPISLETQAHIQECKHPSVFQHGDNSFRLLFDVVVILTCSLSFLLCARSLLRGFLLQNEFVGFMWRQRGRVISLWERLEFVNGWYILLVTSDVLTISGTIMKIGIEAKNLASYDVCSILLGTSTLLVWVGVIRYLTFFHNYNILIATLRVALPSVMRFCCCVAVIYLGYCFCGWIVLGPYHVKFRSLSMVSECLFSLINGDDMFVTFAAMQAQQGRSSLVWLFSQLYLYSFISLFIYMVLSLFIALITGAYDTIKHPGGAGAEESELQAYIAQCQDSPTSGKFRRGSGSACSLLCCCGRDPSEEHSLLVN
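TRPML1-DL cells, Tet-induced overnight (~16 h, 37 °C) at 1,500 cells/well, were loaded with Ca8 no-wash dye plus quencher for 45-90 min at room temperature. Compounds were pinned during FDSS kinetic reading; agonist 54-4 at EC80 (4 uM final) then added.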
gsp antag: qHTS for Antagonists of gsp, the Etiologic Mutation Responsible for Fibrous Dysplasia/McCune-Albright Syndrome: qHTS | 340,000 tested, 0.4% active | AID 624288, 2012 | Potency, µM (titrated, usually from 76.9 µM), inactives show at the highest dose activity change, negative = inhibition, hits mostly inhibitors | gsp-mutant cells, cAMP HTRF, 30 min; control for the full effect not named in the record; active = falling curve of any shape with a large fitted effect; inconclusive = falling curve, mostly with a smaller effect; inactive = flat or rising curve; cell line not stated here;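 further: intracellular cAMP measured with PDE inhibitor Ro 20-1724 present during compound exposure; potency means the concentration at half of the fitted maximal effect; on the % scale 0 is the no-effect control and ±100 the full control effect; nearly all actives have a fitted effect of over 65% in size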
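HTRF cAMP read-out (cAMP-d2 plus anti-cAMP antibody-K in lysis buffer, 30 min RT). Before lysis, cells are exposed to compounds with […] for 30 min at 37C in DPBS containing Ca/Mg, BSA and Tween 20.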
ClpP mod: qHTS Assay for Activators of ClpP | purified B. subtilis ClpP, FRET peptide cleavage, 20 min | Potency, µM (titrated, usually from 57.5 µM), inactives show top-dose activity change, negative = active | 340,000 tested, 1.9% active | AID 651965, 2013; active = well fitted falling curve with a large enough effect; inconclusive = small, poorly fitted or top-dose-only effect; inactive = no such curve, though single readings can be large or run the other way; further: potency means the concentration at half of the fitted maximal effect; the source files actives as falling curves though it sought activators and does not explain the sign; nearly all actives have a fitted effect of over 65% in size; many hits overshoot -100%
Target sequence (P80244 whole entry, looked up): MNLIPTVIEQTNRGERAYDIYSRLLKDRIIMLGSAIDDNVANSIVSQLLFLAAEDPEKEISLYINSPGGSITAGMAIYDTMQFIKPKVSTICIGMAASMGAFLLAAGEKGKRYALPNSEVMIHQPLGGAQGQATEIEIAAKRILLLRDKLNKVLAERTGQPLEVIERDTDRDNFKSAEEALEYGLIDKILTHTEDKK
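ClpP 10 microg/mL final, pH 8 Tris/KCl buffer with BSA, glycerol, Tween-20; compound pinned in; FRET-FV substrate; RT 20 min; Ex320/Em430; ΔFRET vs ADEP 5.8 microM, DMSO, no enzyme.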
TRPML1 agonist: qHTS for Agonists of the Human Mucolipin Transient Receptor Potential 1 (TRPML1) | activation, % (no concentration beside the values) | TRPML1-expressing cells, Ca2+ dye fluorescence, FDSS; host cell line not named in the record; reference of the full effect not given here | Mucolipin-1 (Homo sapiens), Q9GZU1 | 410,000 tested, 0.12% active; in the data active = activation above about 50%; inconclusive = about 30% to 50%; inactive = below about 30%; further: 0% is about no effect; the text of the record puts the active cut at 80%
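TRPML1-DL cells, Tet-induced overnight (~16 h, 37 degrees C), loaded 45-90 min at room temperature with Ca8 no-wash calcium dye plus quencher. FDSS fluorescence: 10 s baseline, compound pin-transfer, 110 s agonist read, then EC80 54-4 (4uM final) and 110 s antagonist read.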
The depositor's hits bear a star; ? = inconclusive; · = no result given; & = joins results of further samples; [ ] = remark or other dose.

SMILES | Menin-MLL FL inh | gsp ag | TRPML1 blocker | gsp antag | ClpP mod | TRPML1 agonist
C/C(CC(=O)Nc1ccc(Cl)cc1C(F)(F)F)=N\NC(=O)c1cccs1 | -0.3 | -5%[15.4 µM] | 4 | -1% | · | -0.3
O=C1CN(c2ccccc2)C(=S)N1C(=O)c1ccc(Br)cc1 | -7.5 | 17%[15.4 µM] | -10 | -16% | 1.0% | -1.1
Cc1cc(C)cc(Oc2nc3c(c(=O)n(C)c(=O)n3C)n2Cc2ccc(F)cc2)c1 | · | · | 7 | · | 2.5% | -0.9
C[n+]1cccc(/C=N/NC(=O)CC23CC4CC(CC(C4)C2)C3)c1 | 7.0 | 14%[15.4 µM] | 48 | 3% | · | -0.8
Cc1oc(-c2cc(F)cc(F)c2)nc1CN1CCSCC1 | 2.4 | -6% | -2 | 4% | 0.4% | -0.3
O=C(CSC1CCCCC1)Nc1ccccc1Br | 4.0 | -2% | -5 | 1% | -2.2% | -0.8
Cc1ccc(C2CC(=O)C(C=NCCN3CCN(C(=S)Nc4ccc(F)cc4)CC3)=C(O)C2)cc1 (centres undefined) | 7.1 | -16%[15.4 µM] | -6 | ? | · | 0.7
CCc1nnc(NC(=O)CN2CCN(S(C)(=O)=O)CC2)s1 | -0.8 | ? | -7 | 9% | 0.5% | 1.3
O=C1CNC(=O)/C1=C/c1ccc(O)cc1 | 5.6 | -2% | 2 | 4% | -1.1% | 1.1
Nc1nc(SCCO)[nH]c(=O)c1NC(=O)c1ccc(Br)o1 | · | -28%[15.4 µM] | -2 | 9% | -1.0% | 0.5
O=C(CSc1nnc(NC(=O)c2ccccc2)s1)NCC1CCCO1 (centres undefined) | 2.5 | 0% | 0 | -5% | 0.9% | 0.0
COc1cccc(C(C(=O)NC2CCCC2)N(C(=O)CNC(=O)c2ccco2)c2cccnc2)c1 (centres undefined) | -2.7 | 13% | -3 | 9% | · | 0.3
O=C1OC2CC3CC1CC(O)(C3)C2 (centres undefined) | 8.8 | 2% | -7 | 6% | -3.1% | 0.4
CCc1c(C)c(C#N)c2nc3ccccc3n2c1N(C)C | 2.3 | -1% | 6 | -9%[15.4 µM] | -4.0% | 2.6
COc1ccccc1NC(=O)CSC1=Nc2ccccc2C2=NC(Cc3ccccc3)C(=O)N12 (centres undefined) | · | · | -10 | · | -5.9% | 0.3
COc1cccc(/C=C/C(=O)OCC(=O)NCc2ccc3c(c2)OCO3)c1 | · | -1% | -5 | -16% | ? | 0.2
CC(C)NC(=O)CSc1nnc(-c2ccncc2)n1-c1ccccc1 | 3.3 | 14% | 5 | 4% | -3.7% | 0.1
Cc1ccc(C(=O)NCCN2C3=NC[C@H](C(C)C)N3C[C@H]2Cc2ccc(O)cc2)cc1Br | -1.3 | · | 18 | 5% | -0.9% | -0.7
COc1ccc(NC(=O)c2ccc(COc3ccccc3Br)o2)cc1OC | -0.3 | -18% | -14 | -1% | -12% | 1.7
CC1(C2CC2)NC(=O)N(CC(=O)Nc2ccccc2F)C1=O (centres undefined) | · | -6% | -17 | 8% | -1.2% | 0.3
O=C(N/N=C/c1ccccc1C(=O)O)c1ccc(COc2cccc3cccnc23)cc1 | 0.0 | 21%[15.4 µM] | -10 | 12% | · | 1.2
CC(C)(C)C(=O)N1CCN(c2ccc(Cl)cc2[N+](=O)[O-])CC1 | 0.1 | 6%[15.4 µM] | -4 | -4% | · | 1.9
Nc1cc(S(=O)(=O)N2CCCCC2)ccc1Oc1ccc(Cl)cc1 | 1.0 | ? | -5 | 8% | -7.5% | 0.2
Cc1nc2cc(NCc3nc4ccccc4n3Cc3ccccc3)ccc2n1C | 0.4 | ? | 3 | 1% | -4.4% | -0.9
COC(=O)c1cscc1NC(C)=O | 7.6 | -1% | 56 | 0%[15.4 µM] | -2.7% | 0.6

Three compounds out of the list above, ordered by their value in gsp antag, high to low:
SMILES,Menin-MLL FL inh,gsp ag,TRPML1 blocker,gsp antag
CCc1nnc(NC(=O)CN2CCN(S(C)(=O)=O)CC2)s1,-0.8,?,-7,9%
CC1(C2CC2)NC(=O)N(CC(=O)Nc2ccccc2F)C1=O (centres undefined),·,-6%,-17,8%
Cc1nc2cc(NCc3nc4ccccc4n3Cc3ccccc3)ccc2n1C,0.4,?,3,1%

Further results follow:
SMILES | Menin-MLL FL inh | gsp ag | TRPML1 blocker | gsp antag | ClpP mod | TRPML1 agonist
CC[C@@]1(c2ccccc2OC)ON(c2ccccc2C(F)(F)F)C1=O | · | -53%[inhibitor] | -13 | 10% | 0.4% | -0.1
C[C@H](N)c1nnc(SCC(=O)N(C)C)o1 | 5.2 | 5% | 5 | 10% | 0.6% | -0.3
O=C(Nc1ccc2cn[nH]c2c1)c1ccc(Cl)c(S(=O)(=O)N2CCOCC2)c1 | 4.1 | 18% | 5 | -11% | 1.2% | -0.1
O=C(NCc1ccccc1)C1CCN(S(=O)(=O)c2ccc(N3CCCC3=O)cc2)CC1 | · | ? | 34 | -2% | · | 0.2
CCCc1ncc(C(O)c2ccccc2OC)n1C (centres undefined) | 2.3 | -88%[inhibitor] | 12 | -1% | · | -0.7
CCC(=O)N1CCc2cc(Br)cc(S(=O)(=O)N3CCC(C(=O)NC(C)C)CC3)c21 | -5.4 | -3% | -28 | -14% | · | -0.1
O=S(=O)(c1ccc2ccccc2c1)N1CCOCC1 | 1.2 | -37%[inhibitor] | 21 | 15% | 0.6% | -0.6&-0.3
CCn1c(=O)c2cc(S(=O)(=O)NCc3ccccc3)ccc2n(CC)c1=O | -2.4 | 12% | -10 | -21% | -4.6% | 4.8
Cc1nc2ccccc2c(=O)n1-c1ccc(NC(=O)c2ccc([N+](=O)[O-])cc2)cc1 | · | · | -23 | · | -0.2% | -0.7
COc1ccc(NC(=O)N2CCC(c3ccccc3)C2)c(OC)c1 (centres undefined) | 1.2 | -2% | -9 | 50µM* | 0.4% | -1.2
S=C(Nc1ccc(Cl)cc1)Nc1cccc2cnccc12 | -0.3 | -10%[15.4 µM] | 30 | 3% | 0.8% | 0.0
CCOC(=O)c1c(C)c(-c2ccccc2)n(CC(=O)N2CCCC2)c1C | 5.2 | ? | 8 | -7% | 0.1% | 0.5
O=C(c1cc(-c2ccc(Cl)c(Cl)c2)on1)N1CCN(c2ccccc2)CC1 | 0.0 | ? | 6 | 8% | -0.5% | 0.2
Cc1ccc(N2CC(c3nc(-c4ccc(Cl)cc4)no3)CC2=O)cc1F (centres undefined) | · | · | 7 | · | -0.7% | 1.5
COc1ccc(C2/C(=C(\O)c3ccc4c(c3)OCCO4)C(=O)C(=O)N2CCCn2ccnc2)cc1 (centres undefined) | · | ? | -4 | 4% | -1.2% | -0.1
COc1ccc(CC2(CO)CCN(CC3=Cc4cc(Cl)ccc4OC3)CC2)cc1 | 0.6 | -8% | 34 | 0% | · | -0.2
NC1=NC(=O)/C(=C\C=C\c2ccccc2)S1 | 4.9 | 5% | 27 | 9% | 1.1% | 1.4
COC(=O)NC(NS(=O)(=O)c1ccccc1)(C(=O)OC)C(F)(F)F (centres undefined) | 4.5 | 3%[15.4 µM] | -10 | -9% | · | 0.1
COc1cc(C(=O)N(C)C2CCCCC2)ccc1OC1CCN(C(C)=O)CC1 | -4.5 | 0% | -1 | 4% | -0.7% | 0.1
O=C(CCc1ccccc1)Nc1ccc(N2CCOCC2)c(Cl)c1 | -1.4 | -51%[inhibitor] | 4 | 7% | -0.2% | -0.2
Cc1ccccc1NC(=O)C1=CC=CN2CCS(=O)(=O)N=C12 | · | ? | 2 | -7% | -4.9% | -1.1
Cn1ccnc1SCC(=O)Nc1ccc([N+](=O)[O-])cn1 | -4.8 | -1% | 11 | 16% | 2.1% | 0.8
COc1ccccc1NS(=O)(=O)c1ccc(C)c(C(=O)NC2=NCCS2)c1 | · | -17% | -10 | 1% | -1.9% | -0.3
NS(=O)(=O)c1ccc(N2N=C(c3ccccc3)CC2c2ccccc2)cc1 (centres undefined) | -0.8 | 12% | 62 | -4% | -8.0% | 2.5
CC(CCc1ccccc1)NC(=O)COC(=O)c1ccc(F)cc1 (centres undefined) | 2.0 | -5% | -1 | 7% | · | 1.2

Copied from the list.
ClpP mod, `Cc1ccc(N2CC(c3nc(-c4ccc(Cl)cc4)no3)CC2=O)cc1F` (centres undefined) stands at -0.7%
TRPML1 blocker, `O=C(CCc1ccccc1)Nc1ccc(N2CCOCC2)c(Cl)c1` stands at 4

Later entries
SMILES | Menin-MLL FL inh | gsp ag | TRPML1 blocker | gsp antag | ClpP mod | TRPML1 agonist
Cc1ccc(S(=O)(=O)N(C)c2ccc(C(=O)NCC(c3ccccc3)N3CCCC3)cc2)cc1 (centres undefined) | · | -5% | -13 | · | 1.2% | -1.0
CCCN(CCC)C(=O)Cn1c(=O)c2ccccc2n2c(=S)sc(-c3ccccc3C)c12 | 2.4 | -6% | 0 | 17% | 1.4% | 0.1
Cc1ccc(NC(=O)c2oc(=O)c3ccccc3c2-c2ccccc2)c(C)c1 | 0.1 | -5% | -9 | -4% | -11% | 1.9
Cc1cc(CCN2CCC(=O)NC2=O)ccc1OC(C)C | 0.7 | -13% | 1 | -2% | 0.4% | 0.1
Cc1nnc(NC(=O)c2ccc(S(=O)(=O)N3CCCCC3)cc2)s1 | · | 6% | 15 | -6% | 0.5% | 1.4
Cc1coc2cc3oc(=O)c(CCC(=O)NCc4ccccn4)c(C)c3cc12 | 1.4 | · | · | -3% | 4.8% | ·
COc1ccc(/C=C/C(=O)NCCc2ccc(S(N)(=O)=O)cc2)cc1 | · | -2% | 6 | 1% | -2.2% | 0.7
CN(Cc1cccc(F)c1)C(=O)CN1C(=O)NC2(CCc3ccccc32)C1=O (centres undefined) | · | -5% | 9 | 1% | 3.3% | -0.6
O=C(COc1ccc(Cl)cc1)Nc1nc(-c2cccs2)cs1 | 3.5 | ? | -13 | -17% | -4.4% | -0.9
O=C(CNC(=O)c1ccc(Br)cc1)NCC(=O)OCC(=O)c1ccc(F)cc1 | · | 12% | -4 | 11% | 1.1% | -0.1
COc1ccc(NC(=O)c2ccc3c(=O)n4nc(Nc5cc(C)ccc5C)sc4nc3c2)cc1 | · | · | -12 | · | 1.5% | -0.7
CC1CCN(S(=O)(=O)c2ccc3c(c2)N(CC(=O)NCCCOC(C)C)C(=O)CO3)CC1 | -1.7 | 11% | 3&7 | 3% | -0.1%&0.4% | -0.8&1.0
Nc1nonc1-n1nnc(C(=O)N/N=C/c2ccccc2F)c1CN1CCOCC1 | · | -34%[inhibitor] | 5 | -11% | 2.3% | -0.2
